Compound activity as filed in PubChem.
B2AR ag – activates human beta-2 adrenergic receptor causing internalization; P07550; Am2.2-beta2AR cells, FAP receptor internalization, flow cytometry; reference of the scale not given here; response, % (no concentration beside the values); actives 0.43% (n = 340,000); AID 504454;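 active means response above a set limit, near 3 SD of response in nonfluorescent compounds, cut at about 42% in these data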;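 further: stock transfer was 100 nL into about 11 µL; a reference agonist was the positive control; negative values mostly stem from fluorescent compounds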
Target sequence (P07550 whole entry, looked up): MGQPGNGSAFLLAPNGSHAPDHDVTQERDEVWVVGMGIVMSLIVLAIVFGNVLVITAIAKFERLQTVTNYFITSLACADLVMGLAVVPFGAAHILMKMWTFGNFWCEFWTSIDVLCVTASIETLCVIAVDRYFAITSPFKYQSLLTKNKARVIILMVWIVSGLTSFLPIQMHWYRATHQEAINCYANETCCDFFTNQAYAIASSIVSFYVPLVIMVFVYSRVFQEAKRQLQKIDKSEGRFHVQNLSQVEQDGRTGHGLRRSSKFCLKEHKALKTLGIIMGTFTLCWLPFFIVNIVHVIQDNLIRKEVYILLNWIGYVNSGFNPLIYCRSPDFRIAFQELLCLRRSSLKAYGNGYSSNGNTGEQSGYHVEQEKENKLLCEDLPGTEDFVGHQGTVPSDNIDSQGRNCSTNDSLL
* marks the source's active call; other numbers are inactive results. This is a subset; count on the stated rates, not on these rows.

SMILES | B2AR ag
Cc1cc(NC(=O)NC(=O)c2ccccc2NC(=O)C(C)N)ccc1Oc1ncc(Br)cn1 (stereo not given) | 5
O=C(Cn1cc(COc2c(F)c(F)cc(F)c2F)nn1)c1ccc(O)cc1 | -3
CC(C)(C)OC(=O)N(Cc1ccccc1)Cc1ccccc1OCc1cccc(NC(=O)C2CCC2)c1 | -2
CCCCN1CC(=O)N2[C@@H]3c4cc(Br)ccc4OC[C@@H]3[C@H](C(=O)OCC)[C@]2(C)C1=O | 5
c1ccc(-c2nn(-c3ccccc3)[n+](-c3ccccc3)n2)cc1 | -5
CCON1C(=O)C2(CCCCC2)C(=O)C12C=CCCC2 (stereo not given) | 0
COc1cc(-c2cc(O)c(-c3ccc4ccccc4n3)c(=O)[nH]2)cc(OC)c1OC | -594
Cn1c(-c2ccc(C#N)cc2)c(C#Cc2ccccc2)c2ccccc21 | 4
CC(C)(C)OC(=O)N(Cc1ccccc1)Cc1ccc(OCc2cccc(NC(=O)C3CC3)c2)cc1 | 3
CN(C)CCNc1ccc2ncn3c4ccc(O)cc4c(=O)c1c23 | -216
Oc1[nH]c2ccccc2c1N=Nc1c(F)c(F)c(F)c(F)c1F | -7
Nc1ccccc1C(=O)NC(=O)Nc1ccc(Oc2ncc(Br)cn2)c(Cl)c1 | 11
C[C@@H]1CN(S(=O)C(C)(C)C)[C@H](CCO)/C1=C\c1ccccc1 (stereo not given in full) | -12
O=C(NCCc1ccccc1)c1cccc(NC(=O)C2CCCCC2)c1 | -8
COc1ccc(N)c(C)c1 | 15
Cc1ccccc1C(=O)N1CCC2CC1c1cc(Cl)ccc12 (stereo not given) | -3
Clc1ccccc1N=Nc1ccccn1 | -2
CC(C)C[C@@H](CN1CCCC1CN1C(=S)NC[C@@H]1Cc1ccc(O)cc1)N1C[C@H](Cc2ccccc2)N(CCc2ccccc2)C1=S (stereo not given in full) | 2
Cc1ccc2c(Cl)c(Cc3ccccc3)c(=S)[nH]c2n1 | 0
CC(C)C[C@@H](CN)NC(=O)c1nc[nH]c1C(=O)N[C@@H](Cc1ccccc1)C(=O)CNC[C@H](C)NC(=O)c1nc[nH]c1C(=O)N[C@@H](CC(=O)O)C(=O)O | -9
O=C1NC[C@H](Cc2ccccc2)N(C[C@H]2CCCN2C[C@H](Cc2ccccc2)N2C[C@H](Cc3ccc(O)cc3)N(CCc3ccccc3)C(=O)C2=O)C1=O | 5
COc1ccc(S(=O)(=O)N2CCCCC2)cc1NC(=O)c1[nH]c(C)c(C(C)=O)c1C | 6
CCOC(=O)C(Cc1ccc(O)cc1)Nc1nc2ccccc2o1 (stereo not given) | -3
COc1ccc(OC)c2cc3ccccc3cc12 | 14
CC(C)(C)C(=O)Nc1cccc(-c2ccc[nH]2)n1 | -16
COc1ccc(N2CCN(C(=O)C(Cc3ccccc3)NC(=O)c3ccccc3)CC2)cc1 (stereo not given) | -3
COc1cc2c(cc1OC)C1CCN3C(=O)CCC3N1CC2 (stereo not given) | -1
COc1ccc(C=C(NC(=O)c2ccccc2)C(=O)O)cc1OC | -2
CCN(CC)c1ccc(C2NC(=O)c3ccccc3N2)cc1 (stereo not given) | -2
CC(C)=NNc1ncnc2nc[nH]c12 | -12
O=C(NCc1ccccn1)C1CCCN(S(=O)(=O)c2cc(Cl)ccc2Cl)C1 (stereo not given) | 14
O=C(O)c1cccc2cccc(-c3c4ccc(=O)c(O)c-4oc4c(O)c(O)ccc34)c12 | -2
COCC(=O)N1CCC2CC1c1c(-c3ccc(C(F)(F)F)cc3)cccc12 (stereo not given) | -8
C=C(CN(C)C)C(=O)c1ccc(OC2OC(COC(C)=O)C(OC(C)=O)C(OC(C)=O)C2OC(C)=O)cc1 (stereo not given) | 25
O=C(Nc1ccccc1Cl)c1ccc(C(=O)Nc2ccccc2Cl)cc1 | -3
CCOC(=O)C1=NNC(C(=O)OCC)C1c1ccccc1 (stereo not given) | 6
O=C(/C=C/c1ccccc1)CCN1CCOCC1 | 19
COc1ccc(C(=O)N(c2ccccc2)c2nccc3ccccc23)cc1OC | -4
C[C@H]1CN([C@@H](C)CO)C(=O)Cc2cc(NC(=O)Nc3ccccc3)ccc2O[C@H]1CN(C)Cc1ccccc1 | -6
COc1ccc(N=Cc2ccc(N(CCC#N)CCC#N)cc2)cc1 | -3
COC(=O)Cc1c(-c2[nH]c3ccccc3c2CC(=O)OC)[nH]c2ccccc12 | 4
Cc1ccc(NC(=O)CC2Nc3ccccc3NC2=O)cc1Cl (stereo not given) | 9
CC(=NNC(=S)N1CCN(c2ccccn2)CC1)c1nccs1 | -13
Cc1cn(CC(=O)N[C@H](CO)Cc2c[nH]c3ccccc23)c(=O)[nH]c1=O | -2
COc1ccc(CN2C(CC(=O)Nc3cccnc3)c3ccc(C(F)(F)F)cc3S2(=O)=O)cc1 (stereo not given) | -11
Cc1ccccc1S(=O)(=O)N1C[C@H]2CON(C)[C@H]2C[C@H]1c1cccc(Br)c1 | -2
S=C1NC[C@H](Cc2ccccc2)N1CC1CCN(CCCC2CCCC2)CC1 | -6
COc1ccc2[nH]cc(CCNC(=O)Cn3cc(C)c(=O)[nH]c3=O)c2c1 | -3
Cc1cc(C(=O)Cn2cnc3ccc(Cl)cc3c2=O)c(C)n1C1CC1 | -9
CCN(CC)C1Oc2cc3c(cc2C(c2cccc(OC)c2O)C1C)OCO3 (stereo not given) | 2
O=S(=O)(c1cc(Cl)cc(Cl)c1)N1CCC2CC1c1cc(Cl)ccc12 (stereo not given) | 5
O=c1ccn(C2CCCO2)c(=O)[nH]1 (stereo not given) | -2
CN(Cc1cnc2nc(N)nc(N)c2n1)c1ccc(C(=O)NC(CCC(=O)O)C(=O)O)cc1C(F)(F)F (stereo not given) | 4
CC(C)(C)OC(=O)N(CCc1ccccc1)Cc1cccc(OCc2cccc(NC(=O)C3CC3)c2)c1 | 18
O=c1c2ccccc2sc2c(CO)ccc(NCCN3CCCCC3)c12 | -1
CCCS(=O)(=O)Nc1ccc(Nc2c3ccccc3nc3ccccc23)c(OC)c1 | 2
COc1cc(CCNC2=CC(=O)c3ncccc3C2=O)ccc1O | -13
O=C1CSCc2nc3ccccc3n21 | 0
Cc1cc(-c2ccccc2)nc(N/N=C/c2ccc(O)cc2)n1 | 11
CON=C1C=C(C)C(=O)C(C)=C1C | 1
Remaining list, next part.
SMILES | B2AR ag
Cc1cc(NC2=CC(=O)C(=O)c3ccccc32)no1 | 0
O=C(/C(=N/O)c1ccccc1)c1ccccc1 | 0
O=C(O)c1ccc([N+](=O)[O-])cc1Sc1ccsc1 | -3
COC(=O)c1ccc(C(=O)OC)c(NC(=O)C2CC(=O)N(C3CCCC3)C2)c1 (stereo not given) | -6
CC(C)(C)OC(=O)N1CCCC(C(=O)Nc2cccc(C(=O)NC3CC3)c2)C1 (stereo not given) | -6
Cc1noc(C)c1NC(=O)N(C)C[C@H]1Oc2c(cccc2N(C)C)C(=O)N([C@H](C)CO)C[C@@H]1C | -7
CC1OC(OC2C(CO)OC(OCC3OC(OC(=O)[C@@]45CCC(C)(C)C[C@@H]4C4=CC[C@@H]6[C@@]7(C)CCC(OC8OCC(O)C(O)C8OC8OC(C)C(O)C(O)C8O)[C@@](C)(CO)C7CC[C@@]6(C)[C@]4(C)CC5)C(O)C(O)C3O)C(O)C2O)C(O)C(O)C1O (stereo not given in full) | 7
Cc1ccc(CNCCCn2cnc(C(=O)Nc3ccc(C)c(C)c3)n2)o1 | 9
O=c1ccn(Cc2ccccc2)c(SCc2ccccc2)n1 | -15
Cc1cc(NC(=O)c2cc3ccccc3o2)no1 | 0
Cc1cccc(NC(=O)c2ccc(NS(=O)(=O)c3cccc4cccnc34)cc2)c1 | 16
COc1ccc(N=C2C(=S)N(c3ccc(OC)cc3)C(=NS(=O)(=O)c3ccccc3)N2c2ccccc2)cc1 | 7
Cc1cc2c(=O)n(C)c(SCC(=O)Nc3ccc(F)cc3)nc2s1 | 12
CN1C[C@H]2CON(C)[C@H]2C[C@H]1c1cccc(-c2ccccc2)c1 | -1
F[B-](F)(F)COc1ccccc1 | 1
CCc1ccc(CNCCNC(=O)c2ccco2)cc1 | 13
Cc1ccccc1N1CCN(c2ccccc2NC(=O)/C=C\C(=O)O)CC1 | 9
O=[N+]([O-])c1cc2no[n+]([O-])c2cc1N1CCCCC1 | -15
Nc1[nH]c(=O)nc2snnc12 | -2
CCOP(=O)(Nc1cccc2oc(=O)c3ccccc3c12)OCC | -10

The closing five entries of the part before open the next one:
SMILES | B2AR ag
CCc1ccc(CNCCNC(=O)c2ccco2)cc1 | 13
Cc1ccccc1N1CCN(c2ccccc2NC(=O)/C=C\C(=O)O)CC1 | 9
O=[N+]([O-])c1cc2no[n+]([O-])c2cc1N1CCCCC1 | -15
Nc1[nH]c(=O)nc2snnc12 | -2
CCOP(=O)(Nc1cccc2oc(=O)c3ccccc3c12)OCC | -10
O=S(=O)(CS(=O)(=O)Oc1ccccc1)Oc1ccccc1 | -4
CCC(CC)CN1CCC(CN2C(=O)C(=O)NC[C@@H]2[C@@H](C)CC)CC1 | -7
CN1OC[C@@H]2CN(Cc3ccccc3)[C@H](c3cccc(N4CCOCC4)c3)C[C@@H]21 | 7
O=C(O)C(c1ccccc1)C1(O)CC2CCC1C2 (stereo not given) | -1
COc1cccc2c1C1COC3C4CC(C(=O)O)C(C(C2)N13)N4C (stereo not given) | -15
O=C1NC(c2cccc3ccccc23)Nc2ccc(Cl)cc21 (stereo not given) | 8
CCOc1cccc(C2C(C(=O)c3ccc(C)o3)=C(O)C(=O)N2c2nnc(C)s2)c1 (stereo not given) | 0
COc1ccc2c(c1)/C(=C/c1cc(OC)c(OC)c(OC)c1)C(=O)N2 | 5
CN(C)C(CNC(=O)c1cccs1)c1ccco1 (stereo not given) | 3
C/C=C(\C)C(=O)OC1[C@H](OC(C)=O)C2(CO)C(CC1(C)C)C1=CCC3C4(C)CCC(O[C@@H]5O[C@H](C(=O)O)[C@@H](O[C@@H]6O[C@H](CO)[C@@H](O)[C@H](O)[C@H]6O)[C@H](O)[C@H]5O[C@H]5O[C@H](CO)[C@@H](O)[C@H](O)[C@H]5O)[C@](C)(CO)C4CCC3(C)[C@]1(C)C[C@H]2O (stereo not given in full) | 61*
Cc1ccc(C)c(Nc2nc3ccccc3[nH]2)c1 | 13
Cc1c(-c2ccccc2)c(-c2ccc(OCCN(C)C)cc2)n2ccccc12 | -4
CCN1CCC(CN2CCNC2=S)CC1 | -17
COc1cccc(/C=C2/CCC(CN(C)C)C2=O)c1 (stereo not given) | 26
Cc1cc(=O)[nH]c(N2CCCCC2)n1 | 3
O=C(NCCc1ccccc1)c1ccc(NC(=O)C2CCC2)cc1 | 5
O=C(Nc1cccc(Br)c1)C1CC(=O)N(C2CCCC2)C1 (stereo not given) | -2
Nc1nc(Sc2ccc([N+](=O)[O-])c3nonc23)c2[nH]cnc2n1 | 13
CCN1C(=O)CCN(C2CCCC2)c2nc(Nc3ccc(C(=O)NC4CCN(C)CC4)cc3OC)ncc21 | 18
O=C(CCCc1ccncc1)c1ccccc1 | -7

Entries above that contain a CF3 group, in the order listed:
SMILES | B2AR ag
COCC(=O)N1CCC2CC1c1c(-c3ccc(C(F)(F)F)cc3)cccc12 (stereo not given) | -8
COc1ccc(CN2C(CC(=O)Nc3cccnc3)c3ccc(C(F)(F)F)cc3S2(=O)=O)cc1 (stereo not given) | -11
CN(Cc1cnc2nc(N)nc(N)c2n1)c1ccc(C(=O)NC(CCC(=O)O)C(=O)O)cc1C(F)(F)F (stereo not given) | 4

New compounds follow
SMILES | B2AR ag
COC(=O)CC(CC(=O)OC)n1cccc1 | 4
CCC12C(=Nc3c(Cl)cccc31)C[C@@H]1CCN3C(=O)CCC[C@H]2[C@H]13 (stereo not given in full) | 0
C/C(=N\NC(=O)c1ccccc1OCCOc1ccccc1)c1ccccc1F | 0
CC(C)(CC(=O)c1ccccc1)CC(=O)c1ccccc1 | -10
COc1ccccc1NS(=O)(=O)c1cc(C(=O)N2CCN(C(=O)c3ccco3)CC2)ccc1F | -5
CC(=Nc1ccccc1)C1=C(O)C(Cc2ccc(O)cc2)NC1=O (stereo not given) | 19
CCN(CC)CCCOc1nc(C)nc2c1oc1ccccc12 | -6
COC1C=COC2(C)Oc3c(C)c(O)c4c(O)c(c(CN5CCN(C)CC5)c(O)c4c3C2=O)NC(=O)C(C)=CC=CC(C)C(O)C(C)C(O)C(C)C(OC(C)=O)C1C (stereo not given) | -1
COc1ccc(-c2cnnc(N/N=C/c3ccc(-c4ccc([N+](=O)[O-])cc4)o3)n2)cc1 | 10
CCN1C(=O)CC(C(C)C)N(C2CCCC2)c2nc(Nc3ccc(C(=O)NC4CCN(C)CC4)cc3OC)ncc21 (stereo not given) | 34
O=C(Nc1ccc(C(=O)N2CCCC2)cc1)c1ccccc1 | -4
COC(=O)C1C2CC3c4[nH]c5cc(OC)ccc5c4CCN3CC2CC(O)C1OC (stereo not given) | 3
NC(CSC1(c2ccc(Cl)cc2)c2ccccc2-c2ccccc21)C(=O)O (stereo not given) | 6
O=[N+]([O-])c1ccc(Cl)cc1P(=O)(O)c1cc(Cl)ccc1[N+](=O)[O-] | -2
CC(=O)c1ccc2c(c1)CC1(C2)Cc2cc3c(cc2C1)C(=O)CC3 (stereo not given) | -3
CC(=O)Nc1ccc(CCNC(=O)c2ccc3ccccc3c2O)cc1 | -10
O=C(O)c1ccccc1NC(c1ccccc1)c1ccc2cccnc2c1O (stereo not given) | -2
COc1cc(/C=N/Nc2cccc(C)c2)cc(Br)c1O | -6

Filtered by structure, those above containing a nitro group on carbon
SMILES | B2AR ag
O=C(O)c1ccc([N+](=O)[O-])cc1Sc1ccsc1 | -3
O=[N+]([O-])c1cc2no[n+]([O-])c2cc1N1CCCCC1 | -15
Nc1nc(Sc2ccc([N+](=O)[O-])c3nonc23)c2[nH]cnc2n1 | 13
COc1ccc(-c2cnnc(N/N=C/c3ccc(-c4ccc([N+](=O)[O-])cc4)o3)n2)cc1 | 10
O=[N+]([O-])c1ccc(Cl)cc1P(=O)(O)c1cc(Cl)ccc1[N+](=O)[O-] | -2
